VCAM-1 rise – enhancers of VCAM-1 display on endothelial cells, cell-based, plate reader, pooled HUVEC, TNFa stimulus (AID 455); augmentation, % at 5 µM; 0.2% of 10,000 active; HUVEC TNFa-induced VCAM-1 immunofluorescence, plate reader; numbers were filed only for top-ranked candidate wells;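 active = a compound raising TNF-alpha-driven VCAM-1 surface staining, with its hit status upheld on visual or statistical review; inactive = the rest, including hits rejected on review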;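 also: 0% = TNFa with vehicle and 100% = strongest image-checked hit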
Proteasome disasm – blocks ATP-dependent breakdown of the yeast 26S proteasome. anti-FLAG beads, GFP-proteasome disassembly, flow cytometry. inhibition of disassembly, % (test concentration not listed). 0.2% of 24,000 active;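 active = above 40%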;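 also: plate controls were ATP control with full disassembly for no effect and ATP-gamma-S intact proteasomes for full effect; higher percent means more bead fluorescence retained so stronger block of disassembly; stock transfer was 100 nL into about 10 µL; wells with too few beads may also be inconclusive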
An asterisk follows results filed as active; i = inactive; · = not tested or not shown. This is a subset; rates above refer to the full screens.

SMILES | VCAM-1 rise | Proteasome disasm
CCn1c(Cc2ccccc2)nnc1SCC(=O)Nc1nc2ccccc2s1 | i | 0.2
CCCc1noc(-c2ccc(-c3ccccc3)cc2)n1 | · | 0.4
Cc1nc(SCCC(=O)O)c2ccccc2n1 | i | 0.7
O=C(Nc1cnccn1)c1cccs1 | i | 3.8
COc1cccc(OC)c1OCCN1CCN(C(=O)c2ccco2)CC1 | i | -1.6
CCOC(=O)c1c(C)oc2c1c(C=NCC1CCCO1)c(O)c1ccccc12 (stereo not given) | · | 3.6
CCCCOC(=O)C(C)Oc1ccc(=O)n(-c2ccccc2)n1 (stereo not given) | · | -0.4
Cc1ccc(-n2c(=O)cc(NCc3cccnc3)[nH]c2=O)cc1 | · | 3.0
O=C(C1CCCN(S(=O)(=O)c2cccc3nsnc23)C1)N1CCc2ccccc21 (stereo not given) | · | -1.3
O=C(Nc1nnc(-c2ccc(Cl)cc2)o1)C1CCCCC1 | i | 1.0
CCOc1ccc(-c2nnc3sc(-c4c(OC)cccc4OC)nn23)cc1 | i | -2.0
Cc1ccc(S(=O)(=O)NCCNC(=O)c2ccccc2)cc1 | i | -0.1
CCOCCn1c(CN2CCC(Cc3ccccc3)CC2)nc2c1c(=O)n(C)c(=O)n2C | i | 1.2
Cc1nnc(SCc2nnc(-c3ccccc3Br)o2)n1-c1ccccc1 | i | 2.7
Cc1cccc(OCCNC(=O)c2ncn[nH]2)c1 | i | -0.3
COc1ccc(-c2noc(CCC(=O)N(C)c3cccc(C)c3)n2)cc1 | · | -0.1
CCOC(=O)c1cccc(NC(=O)C2CCCN2S(=O)(=O)c2cccc3cccnc23)c1 (stereo not given) | · | -0.9
Cc1ccccc1NC(=O)C1CCCN(S(=O)(=O)c2cccc3cccnc23)C1 (stereo not given) | i | 0.4
COc1ccccc1-n1c(-c2cccnc2)n[nH]c1=S | i | 0.5
c1ccc(Cn2nnnc2CN2CCCC2)cc1 | i | 0.2
COc1ccc(CC(=O)Nc2ccc(-c3nnc(-c4ccc(C)cc4)o3)cc2)cc1 | i | -0.5
COc1ccc(C(=O)Nc2cccc(C)c2)cc1S(=O)(=O)N1CCOCC1 | i | 0.2
COC(=O)C1=C(C)NC(=O)CC1c1cccc(Cl)c1Cl (stereo not given) | · | -0.9
CCC(C)NC(=O)c1cn(CC)c2ccc(S(=O)(=O)N(C)C)cc2c1=O (stereo not given) | i | -1.1
CCCCCn1c(NCc2ccco2)nc2ccccc21 | · | 3.2
COc1ccc2nc(CC(C)(C)CC(=O)O)c[n+]([O-])c2c1 | i | 1.0
CN(Cc1cccs1)C(=O)CCc1ccc(S(=O)(=O)N2CCOCC2)cc1 | i | 1.3
Cn1cccc1Cc1nnc(SCC(=O)N2CCCCCC2)n1CCc1ccccc1 | · | -0.5
CCCCCSc1nnc2c(n1)OC(c1cccn1C)N(C(C)=O)c1ccccc1-2 (stereo not given) | · | -0.3
Nc1nnc(SCCOc2ccccc2)s1 | i | 0.8
CC1(CC(=O)O)SC(=O)NC1=O (stereo not given) | · | -0.7
COc1ccc(N2CCN(CCNC(=O)c3ccc(NC(=O)C4CCCO4)cc3)CC2)cc1 (stereo not given) | · | -0.5
CCOC(=O)c1[nH]c(C)c(C(=O)Nc2ccccc2C)c1C | i | -0.6
CCc1c(C(=O)NCc2ccc3c(c2)OCO3)[nH]c(C)c1C(C)=O | · | -0.9
Cc1ccc(N2CCN(C(=O)c3ccccc3F)CC2)c(C)c1 | · | -0.9
COc1cc(C(c2sc3nc(C)nn3c2O)N2CCC3(CC2)OCCO3)cc(OC)c1OC (stereo not given) | · | -1.5
COC(=O)c1ccc(C2C(C(C)=O)=C(O)C(=O)N2CCO)cc1 (stereo not given) | · | 0.7
Cc1nn(C)c(C)c1S(=O)(=O)N1CCCC(C(=O)NC2CCCCC2)C1 (stereo not given) | · | -0.9
COc1ccc(CC(=O)N2CCNC2=O)cc1 | · | -1.3
CSc1nc(C)c(C(=O)Nc2ccccc2)c(C)c1C#N | i | -0.3
CCOC(=O)Cn1ncc2c(=O)oc3ccccc3c21 | · | -3.3
COCCNC(=O)c1csc2c1CCCC2 | · | 1.3
CCOC(=O)N1CCN(C(=O)c2ccc3nc4ccc(Cl)cc4c(=O)n3c2)CC1 | · | 0.8
COc1ccc(-n2c(Cc3cccn3C)nnc2SCC(=O)NCCc2ccccc2)cc1 | · | 0.0
Cc1cc(NS(=O)(=O)c2ccccc2)no1 | i | -0.3
COCCCn1c(=O)c2ccccc2c2ccccc2c1=O | · | -0.9
COc1ccc(CCN2CCC(Nc3nc4ccccc4n3Cc3ccc(F)cc3)CC2)cc1 | i | 1.1
COc1ccc(C(=O)NCCn2cc(SCC(=O)NCc3ccco3)c3ccccc32)cc1 | · | -0.9
CN1CCN(C(=O)C2(NC(=O)Nc3cccc(F)c3)CCCCC2)CC1 | i | 0.8
O=C(Nc1ccc(F)cc1)C1CCCN(S(=O)(=O)c2cccc3cccnc23)C1 (stereo not given) | · | -1.4

The list goes on.
SMILES | VCAM-1 rise | Proteasome disasm
Cc1sc(NC(=O)CSc2nc(N)n(CC(=O)c3ccccc3)n2)c(C#N)c1C | i | -2.4
COc1ccc(NC(=O)CN2CCN(c3ccccc3F)CC2)cc1 | · | -1.1
COc1ccc(S(=O)(=O)N2CCN(c3ccc4nnc(-c5ccc(F)cc5)n4n3)CC2)cc1 | · | -0.3
c1ccc(N2CCN(Cc3cn4cccnc4n3)CC2)cc1 | i | 0.2
Cc1ccc(-c2nc(CS(=O)(=O)CC(=O)N3CCc4ccccc4C3)c(C)o2)cc1 | · | 1.1
COC(=O)CCC(=O)N1CCc2cc(S(=O)(=O)N3CCN(c4ccccc4Cl)CC3)ccc21 | · | 1.7
O=C(Cc1cccs1)NCc1ccc(F)cc1 | i | 1.4
O=S(=O)(c1ccc(N2CCN(c3ccc(F)cc3)CC2)cc1)N1CCCC1 | i | -0.1
O=C(NCCc1c[nH]c2ccccc12)c1cnc2n(c1=O)CCS2 | i | 2.8
CCCCCC(=O)N1CCN(c2ccc(C(C)=O)cc2F)CC1 | · | 2.4
CCOc1ccc2nc(NC(=O)CSc3nc4ccccc4c(=O)n3Cc3ccco3)sc2c1 | i | 0.6
COC(=O)C1(S(=O)(=O)c2cccc3nsnc23)CC1 | · | 3.2
CC(C)(C)Nc1nc(Oc2ccc(=O)n(-c3ccccc3)n2)nc(N2CCOCC2)n1 | · | -0.9
O=c1oc2c3c4c(cc2s1)CCCN4CCC3 | i | 4.5
Cn1c(=O)[nH]c(=O)c2c1nc(CN1CCN(c3cccc(Cl)c3)CC1)n2CCc1ccccc1 | i | 0.1
O=C(CCCn1c(=O)c2ccccc2n(Cc2ccccc2)c1=O)NCc1ccco1 | · | -1.1
CSc1cccc(NC(=O)C2CCN(S(=O)(=O)c3ccc(F)cc3)CC2)c1 | i | -0.6
CCOC(=O)N1CCN(C(=O)Cn2ccc3ccccc3c2=O)CC1 | · | 0.8
O=C(O)CCc1nn2c3ccccc3nc2n(CCN2CCCCC2)c1=O | · | -0.7
COc1cccc(C2C=C(c3ccc(Br)s3)Nc3ncnn32)c1OC (stereo not given) | · | 5.3

A different layout for part of the listing above.
SMILES	VCAM-1 rise	Proteasome disasm
O=C(CCCn1c(=O)c2ccccc2n(Cc2ccccc2)c1=O)NCc1ccco1	·	-1.1
CC(C)(C)Nc1nc(Oc2ccc(=O)n(-c3ccccc3)n2)nc(N2CCOCC2)n1	·	-0.9
Cn1c(=O)[nH]c(=O)c2c1nc(CN1CCN(c3cccc(Cl)c3)CC1)n2CCc1ccccc1	i	0.1
CSc1cccc(NC(=O)C2CCN(S(=O)(=O)c3ccc(F)cc3)CC2)c1	i	-0.6

Two entries picked at random from the list so far, as already listed:
SMILES | VCAM-1 rise | Proteasome disasm
O=C(O)CCc1nn2c3ccccc3nc2n(CCN2CCCCC2)c1=O | · | -0.7
COC(=O)C1(S(=O)(=O)c2cccc3nsnc23)CC1 | · | 3.2

Continuation:
SMILES | VCAM-1 rise | Proteasome disasm
O=C(O)c1n[nH]c2ccccc12 | · | -2.4
O=C(NCC1CCCO1)C1CCN(S(=O)(=O)c2cccc3cccnc23)CC1 (stereo not given) | i | 1.7
CCOC(=O)N1CCN(C(=O)CCN2C(=O)COc3ccccc32)CC1 | · | 2.7
CCN(CC)C(=O)COC(=O)c1ccc(O)cc1 | i | -0.7
CCCc1cc(N2CCCC2)n2nc(C)c(-c3ccccc3)c2n1 | i | -1.2
Cc1c(C(=O)NCc2ccc3c(c2)OCO3)oc2ccc(S(=O)(=O)N3CCCCCC3)cc12 | · | 0.8
Cc1cccc(NC(=O)CC2NC3CCCCC3NC2=O)c1 (stereo not given) | i | -1.3
COC(=O)c1ccc(Oc2nc(NC(C)C)nc(N(C)C)n2)cc1 | i | -1.0
COc1ccc(C(=O)N(CCN2CCOCC2)CC(=O)NC2CCCC2)cc1OC | i | 1.0
O=C(C1CCCN(S(=O)(=O)c2cccc3cccnc23)C1)N1CCN(c2ccccc2F)CC1 (stereo not given) | · | -1.2
O=C(NCc1ccc2c(c1)OCO2)Oc1ccccc1 | · | 3.2
O=C(Cn1cc2c(n1)CCCC2)Nc1ccccc1Br | · | 4.2
CCOCCCNC(=O)Cc1c(C(=O)O)[nH]c2ccc(Cl)cc12 | · | -0.2
CCCOC(=O)/C(C(N)=NCc1ccccc1)=C(\O)OCCC | i | 4.9
CCCN(CC1CC1)C(=O)Nc1ccccc1C | i | -0.8
Cc1ccc(CS(=O)(=O)CCC(=O)NCCN2CCCC2)cc1 | · | -0.3
COC(=O)c1cc2occc2n1CC(=O)N(C)C1CCCCC1 | · | 0.9
O=C(Nc1ccc2c(c1)OCO2)C1CCCN1C(=O)Nc1ccccc1F (stereo not given) | i | 0.8
O=C(COc1ccc(Cl)cc1)NCc1nnc(SCC(=O)c2ccccc2)o1 | · | 1.6
CCOC(=O)c1cc2ccc(OC)c(OC)c2c(=O)s1 | i | -1.1
CCOC(=O)CC(=O)CSc1nc2c(sc(=S)n2-c2ccccc2)c(=O)[nH]1 | · | 1.4
CC(=O)NC(CCS(C)(=O)=O)C(=O)N1CCc2ccccc21 (stereo not given) | · | -0.1
Fc1cccc2sc(N3CCOCC3)nc12 | i | -0.2
COc1ccc(S(=O)(=O)NCCOc2ccccc2)cc1OC | i | 1.0
CCOc1cc(S(=O)(=O)NCc2ccccn2)c(C)cc1C | i | 1.6
CC(C)CCNC(=O)CN(C)S(=O)(=O)c1cccc2nsnc12 | · | -0.4
N#CCCN1CCN(S(=O)(=O)c2ccc(S(=O)(=O)NCC3CCCO3)cc2)CC1 (stereo not given) | · | 0.5
Cc1c(C(=O)NCc2ccc3c(c2)OCO3)oc2ccc(S(=O)(=O)N3CCCCC3)cc12 | · | -0.6
CN(C)CCCN1c2ccccc2Sc2ccc(Cl)cc21 | i | -0.2
COC(=O)CN1C(=O)C(C)=C(c2ccc(C)cc2)S1(=O)=O | · | 1.2
C[C@]12CC[C@@H]3c4ccc(OC(=O)c5ccccc5)cc4CC[C@H]3[C@@H]1CC[C@@H]2O | i | -0.5
CCOC(=O)N1CCN(CC(O)c2ccc3c(c2)CCN3)CC1 (stereo not given) | · | 0.4
O=C(Nc1cccnc1)Nc1ccc2c(c1)OCO2 | i | -1.1
Nc1nonc1-c1nc2ccccc2n1CCC(=O)O | · | 1.2
CCC(=O)N1c2ccc(S(=O)(=O)CCC(=O)N3CCn4c3nc3ccccc34)cc2CC1C (stereo not given) | · | 1.1
O=C(C1CCN(S(=O)(=O)c2cccc3nsnc23)CC1)N1CC=C(c2ccccc2)CC1 | · | 1.1
O=C1c2cccnc2C(=O)N1Cc1cccs1 | · | -1.7
CCCCNC(=O)Nc1ccnn1C1CCCCC1 | i | -0.6
O=C(CCn1c(=O)c2sccc2n(CC(=O)NCc2ccco2)c1=O)NCc1ccccc1 | i | -1.8
Cc1cc(C)cc(N(CC(=O)N2CCN(c3ccccc3)CC2)S(=O)(=O)c2c(C)noc2C)c1 | · | 0.7

Single records, as listed above.
Results for `O=C(Nc1cccnc1)Nc1ccc2c(c1)OCO2` → VCAM-1 rise: i; Proteasome disasm: -1.1
Results for `C[C@]12CC[C@@H]3c4ccc(OC(=O)c5ccccc5)cc4CC[C@H]3[C@@H]1CC[C@@H]2O` → VCAM-1 rise: i; Proteasome disasm: -0.5
Results for `CCCCNC(=O)Nc1ccnn1C1CCCCC1` → VCAM-1 rise: i; Proteasome disasm: -0.6

Following part.
SMILES | VCAM-1 rise | Proteasome disasm
CC12COC3(C(=O)Nc4ccc(Cl)cn4)CC1CCC32C (stereo not given) | i | 0.3
CCS(=O)(=O)NCc1cn2c(C)csc2n1 | · | -0.5
CCC(=O)N1CCc2cc(Br)cc(S(=O)(=O)N3CCN(c4ccccn4)CC3)c21 | · | -0.9
COc1ccc(OC)c(NC2c3ncccc3C(=O)N2Cc2ccco2)c1 (stereo not given) | · | 1.4
CCOC(=O)N1CCC(n2c(SCC(=O)NCCC3=CCCCC3)nc3ccccc3c2=O)CC1 | · | -0.7
O=C(Nc1ccc2nc(-c3cccnc3)[nH]c2c1)c1ccco1 | · | 20
CC(C)c1ccc(NC(=O)CSc2nc3c(c(=O)[nH]2)CCC3)cc1 | · | -0.3
COc1ccc(N2C(=O)C3CCCN3C2c2ccccc2)cc1 (stereo not given) | · | 2.2
CCCCNC(=O)CCSc1nc2nc(C)cc(C)n2n1 | · | -2.1
CC1=C(C(N)=O)C(c2ccccc2)n2nc(-c3cccs3)nc2N1 (stereo not given) | · | -0.3
O=C(CCC1N=C2c3ccccc3N=C(SCc3ccccc3Cl)N2C1=O)NCc1ccco1 (stereo not given) | · | 3.8

2 entries from above, with the structure last:
VCAM-1 rise	Proteasome disasm	compound
·	-0.7	CCOC(=O)N1CCC(n2c(SCC(=O)NCCC3=CCCCC3)nc3ccccc3c2=O)CC1
·	20	O=C(Nc1ccc2nc(-c3cccnc3)[nH]c2c1)c1ccco1

Assay outcomes (PubChem BioAssay)
